Compound activity: PubChem, several laboratories
MT1-MMP act inh: blockers of MT1-MMP proenzyme processing, primary screen, HT1080 RFP-PRO-GFP cells, GFP/RFP fluorescence. 360,000 compounds, 0.061% hits. GFP/RFP ratio fluorescence, overnight; percent of plate control window, DMSO zero. GFP/RFP ratio change, % at 20 µM;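 active = GFP/RFP ratio change of at least 30% with cell ATP level not reduced by more than half and red fluorescence within 50% of control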; note: strong numbers were not always called active
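Test system: HT1080 cells expressing an RFP-PRO-GFP fluorescent reporter construct / Compound dosing: single-point 20 µM compound, 1% DMSO / Schedule: cells overnight before dosing, compound overnight, 37 °C, 5% CO2 / Evaluation: GFP/RFP fluorescence ratio / Control set: DMSO and RFP-L50D-GFP cell wells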
PABP polyA inh: PABP poly(A) RNA binding inhibitors, primary screen, biochemical, fluorescence polarization, uHTS; inhibition, % at 35 µM; Polyadenylate-binding protein 1 (Homo sapiens), P11940; 290,000 compounds, 1% hits;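 active = 50% or more with normal probe brightness, or confirmed in later tests; inconclusive = above 50% with abnormal brightness, or retests that disagree; inactive = below 50% or failed in later tests; about a fifth of its hits are not listed in these tables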;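 note: calls also rest on retests at 20 µM and on dose response follow-up; controls were probe without protein and protein plus probe with vehicle; some compounds called inactive have numbers as strong as hits; many hits fall short of the cut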
Target sequence (P11940 whole entry, looked up): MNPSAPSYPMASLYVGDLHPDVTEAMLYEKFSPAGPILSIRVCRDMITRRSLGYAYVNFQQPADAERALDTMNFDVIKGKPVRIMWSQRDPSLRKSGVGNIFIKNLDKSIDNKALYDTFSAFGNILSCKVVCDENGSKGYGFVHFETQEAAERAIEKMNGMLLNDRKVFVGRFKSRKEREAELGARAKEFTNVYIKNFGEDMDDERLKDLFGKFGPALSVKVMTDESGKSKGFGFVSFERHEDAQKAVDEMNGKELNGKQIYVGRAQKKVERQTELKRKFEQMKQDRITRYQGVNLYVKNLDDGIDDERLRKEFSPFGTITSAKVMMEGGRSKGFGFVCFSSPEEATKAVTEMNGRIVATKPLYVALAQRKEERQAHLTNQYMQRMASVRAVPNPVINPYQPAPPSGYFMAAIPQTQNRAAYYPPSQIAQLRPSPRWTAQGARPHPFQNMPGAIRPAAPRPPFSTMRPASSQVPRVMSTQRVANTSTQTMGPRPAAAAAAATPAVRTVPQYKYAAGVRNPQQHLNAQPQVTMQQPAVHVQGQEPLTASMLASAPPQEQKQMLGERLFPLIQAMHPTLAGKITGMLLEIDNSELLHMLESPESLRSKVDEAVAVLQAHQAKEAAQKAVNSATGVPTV
CSC inhib: cancer stem cell viability inhibitors, primary screen, luminescence; cancer stem cell-like cells viability; inhibition, % at 7.5 µM; 300,000 compounds, 1.1% hits; AID 2717, 2010;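 active = mean at 75% or more and at least half the replicates too; inconclusive = mean and replicates disagree; tested in HMLE shEcad cells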;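 note: 0% = median of negative and 100% = median of positive control wells; the first replicate is given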
UUG fidelity: modulators of yeast start codon fidelity, primary screen, whole organism, S. cerevisiae, single point, plate reader. 350,000 compounds, 0.13% hits. activity score, % at 18.7 µM. S. cerevisiae UUG-firefly luciferase reporter, luminescence/redox ratio;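 active = replicate mean at a twofold rise or more, about +100% in these data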;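 note: firefly luciferase made from a UUG start codon reports start codon fidelity; reporter light over untreated wells divided by growth signal over untreated wells; some hits fall short of that in this replicate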
Rce1 inhib: yeast Rce1p protease inhibitors, primary screen, biochemical, fluorescence, cell-free homogeneous; CAAX prenyl protease 2 (Saccharomyces cerevisiae (strain ATCC 204508 / S288c)), Q03530; yeast membranes, quenched prenylated peptide cleavage fluorescence; calls only; 290,000 compounds, 0.27% hits; AID 2563, 2010;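 active = fall in fluorescence gain of 50% or more versus controls, with final raw signal at or below 3038400; inconclusive = same 50% fall but final raw signal above 3038400; inactive = fall in fluorescence gain under 50%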;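 note: plate controls were neutral control wells for no effect and wells lacking membranes for full effect; tested at 10 µM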
eIF4H FP inh: human eIF4H binding inhibitors, primary screen, translation initiation inhibitor project, biochemical, uHTS, fluorescence polarization | Eukaryotic translation initiation factor 4H (Homo sapiens), Q15056 | inhibition, % at 35 µM | eIF4H fluorescence polarization binding assay | 290,000 compounds, 0.94% hits;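 active = 50% or more with normal probe brightness, or confirmed in later tests; inconclusive = above 50% with abnormal brightness, or retests that disagree; inactive = below 50% or failed in later tests; about a fifth of its hits are not listed in these tables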;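 note: calls also rest on retests at 20 µM and on dose response follow-up; 0% = protein and probe with vehicle and 100% = probe without protein; strong numbers were not always called active; many hits fall short of the cut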
HIV Env fusion: inhibitors of HIV-1 Env-driven cell-cell fusion, primary screen, HeLa-JRFL effector, CEM21 target cells, luciferase; inhibition, % at 12.3 µM; 360,000 compounds, 1.1% hits; AID 651610, 2012;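 active = mean replicate inhibition score of at least 50 and every replicate individually at or above 50; inconclusive = only one of the two criteria met; inactive = mean below 50 and not all replicates reaching 50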;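 note: 0% = plate neutral controls and 100% = maraviroc near 300 nM; one replicate is shown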
eIF4H FP inh retest: also measured in eIF4H FP inh; calls as there; inhibition, %; compound at 20 µM; confirmation average;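 mean of two retest wells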
PABP polyA inh retest: recorded beside PABP polyA inh, whose call it bears; inhibition, %; compound at 20 µM; confirmation repeats;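 mean of two retest wells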
MT1-MMP act inh RFP: second read-out of MT1-MMP act inh, no call of its own (marks repeat the call); RFP signal change, %; measured here: RFP expression control read;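 0 = vehicle wells; hits needed this value within 50% of zero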
* marks the source's active call; other numbers are inactive results; i = inactive; ? = inconclusive; · = no result given; & = joins results of further samples; [ ] = remark or other dose.

SMILES	MT1-MMP act inh	MT1-MMP act inh RFP	PABP polyA inh	CSC inhib	UUG fidelity	Rce1 inhib	eIF4H FP inh	HIV Env fusion	others
O=C(c1ccc(Cl)cc1)[C@@H]1[C@@H]2C(=O)N(c3cccc4ccccc34)C(=O)[C@@H]2C2c3ccccc3C=NN21 (stereo not given in full)	-13	3	-3	-2	·	i	23	-28
O=C(CSc1nnnn1-c1cccc(F)c1)NC1CC1	11	6	·	-10	-13	·	·	i
Cc1ccc2c(c1)cc(C(=O)N[C@@H](Cc1ccccc1)C(=O)O)n2C	-12	-6	2	-4	-4	i	6	15
CCOc1ccccc1N1CC(C(=O)N2CCc3ccccc3C2)CC1=O (stereo not given)	·	·	-4	-1	6	i	0	·
CC(=O)c1ccc(O)c(CC=C(C)C)c1	-3	-1	6	-17	-6	i	-4	·
COc1cccc(NC(=O)C(=O)NCCCN2CCCC2=O)c1	2	3	·	-1	-22	i	·	-5
O=C(CC(=O)c1ccccc1)CS(=O)(=O)c1ccccc1	-3	4	·	·	-23	·	·	-19
CCC(Cc1ccccc1)NC(=O)c1ccc2nc(N3CCOCC3)sc2c1 (stereo not given)	-3	-4	-18	-4	1	i	-10	13
COc1ccc(OC)c(C2=C/C(=C/c3ccccn3)C(=O)O2)c1	-5	9	2	-8	·	i	91*	8	eIF4H FP inh retest=95*;PABP polyA inh retest=40
O=C(CN(c1ccccn1)S(=O)(=O)c1ccc(F)cc1)Nc1ccc(F)cc1F	1	1	6	-12	·	i	4	2
Cc1ccc(NC(=O)Cn2nnc(-c3ccc4c(c3)OCO4)n2)cc1F	-2	1	0	0	-14	i	1	6
O=C1c2[nH]nc(-c3ccccc3O)c2C(c2ccccc2)N1Cc1ccco1 (stereo not given)	·	·	1	8	-9	i	-3	-310
O=C(C1CCCN(S(=O)(=O)c2ccccc2)C1)N1CCCc2ccccc21 (stereo not given)	4	1	6	·	7	i	-3	·
Cc1cccc(C(=O)NCCc2csc(C)n2)c1	-5	2	-5	-9	-1	i	-7	0
CCCCOCCCN1CC(=O)N2C(C)c3[nH]c4ccccc4c3C[C@H]2C1=O (stereo not given in full)	7	-1	-2	-11	2	i	-1	12
CCCn1c(C)cc(/C=C(\C#N)C(=O)OCC(=O)NC(=O)NCC)c1C	4	0	-1	-7	-2	i	25	·
CCC(=O)NC(c1cccs1)c1cc([N+](=O)[O-])c2cccnc2c1O (stereo not given)	8	2	12	109*	-14	i	11	-8
C[C@H]1CN([C@@H](C)CO)C(=O)c2cc(Br)cnc2O[C@H]1CN(C)Cc1ccccc1C(=O)O	-4	3	·	·	-3	·	·	5[16.7 µM]
COc1cccc(N2CCN(C(=O)c3cccnc3)CC2)c1	-1	-1	-1	-5	·	i	1	·
Clc1ccc(Cl)c2sc(N3CCCC3)nc12	-5	-5	-4	10	-9	i	-12	-20
C[C@@H]1CCCCO[C@@H](CN(C)S(=O)(=O)c2cn(C)cn2)[C@@H](C)CN([C@H](C)CO)C(=O)c2cc(N(C)C)ccc2O1	1	1	·	·	2&-1	·	·	-23
CCOC(=O)C1(CCc2ccccc2)CCN(Cc2cnc(N(C)C)s2)CC1	4	-6	-1	-2	-8	i	3	22
Cc1ccc2cc(CN(CC3CCCO3)C(=O)NC3CCCCC3)c(=O)[nH]c2c1C (stereo not given)	-1	-5	-6	-4	-9	·	-10	-98
c1ccc2c(c1)C(=NC1CCCCC1)NC2=NC1CCCCC1	3	-2	1	-1	-14	i	-12	38
COc1nc(NCCO)nc(Nc2cc(Cl)ccc2OC)n1	2	5	-2	-3	-9	i	-8	i

Of the compounds above, these contain a Cl atom:
SMILES	MT1-MMP act inh	MT1-MMP act inh RFP	PABP polyA inh	CSC inhib	UUG fidelity	Rce1 inhib	eIF4H FP inh	HIV Env fusion	others
O=C(c1ccc(Cl)cc1)[C@@H]1[C@@H]2C(=O)N(c3cccc4ccccc34)C(=O)[C@@H]2C2c3ccccc3C=NN21 (stereo not given in full)	-13	3	-3	-2	·	i	23	-28
Clc1ccc(Cl)c2sc(N3CCCC3)nc12	-5	-5	-4	10	-9	i	-12	-20
COc1nc(NCCO)nc(Nc2cc(Cl)ccc2OC)n1	2	5	-2	-3	-9	i	-8	i

Further structures
SMILES	MT1-MMP act inh	MT1-MMP act inh RFP	PABP polyA inh	CSC inhib	UUG fidelity	Rce1 inhib	eIF4H FP inh	HIV Env fusion	others
CN1C(=O)/C(=C/c2ccc(OCc3ccccc3F)cc2)N(C)C1=S	-3	0	1	-6	3	i	-7	-86
COc1ccc(CN=Nc2cc(C)nc(NS(=O)(=O)c3ccccc3Cl)n2)cc1	·	·	-11	-1	·	i	-14	5
CC1(C)CC(=O)C2=C(C1)OC(c1cccs1)C(C#N)=C2N (stereo not given)	-5	1	5	·	-23	i	2	·
O=C(O)C1CC(O)CN1C(=S)Nc1ccccc1 (stereo not given)	-1	6	8	-13	·	i	-10	-12
COc1ccc(NC(=O)NCCCCc2ccccc2)cc1	0	2	-18	25	-4	i	9	17
COc1cccc(CN2CCC(C(=O)NC(C)c3cccc4ccccc34)CC2)c1 (stereo not given)	2	-2	·	·	-9	·	·	-2
O=C(CSc1nc2ccc(NC(=O)c3ccccc3C(=O)O)cc2s1)Nc1c(Cl)cccc1Cl	-6	-3	12	·	-9	i	-2	-6
Cc1cc(C)c(C#N)c(SCC(=O)c2ccccc2)n1	3	10	1	0	·	i	-10	-2
N#CCSc1nnc(-c2ccccc2O)n1CCc1ccccc1	2	5	-3	-13	·	i	6	-86
COc1ccccc1C(=O)NC(CCSC)C(=O)NNC(=O)c1ccccc1O (stereo not given)	-72	-51	·	32	-1	·	·	·
c1ccc(CN2CCN(c3nc(NCc4ccco4)c4ccccc4n3)CC2)cc1	5	-12	-3	?	-18	i	0	30
CC(C)(C)OC(=O)C[C@@H]1C/C=C\C[C@@H](CC(=O)N(CCO)Cc2ccccc2)C(=O)NC[C@@H](c2ccccc2)OC1=O	7	2	·	·	-1	·	·	1
CCN(CCO)Cc1csc2ccccc12	0	-1	-16	6	·	i	-6	·
O=C(O)Cc1csc(-c2cccc(Oc3ccccc3)c2)n1	3&2	6&3	0	5&-3	-11&-7	i	-7	15&-1
Cc1ccc(C23CC4CC(CC(NC(=O)NC(C)(C)CO)(C4)C2)C3)cc1	-5	-3	-8	-2	16	i	5	-9
COc1cc(/C=C2\SC(=S)N(CCC(=O)NC3CCCC3)C2=O)cc(OC)c1OC	3	0	-6	-6	-14	·	-2	-23
COC(=O)C1(C)NC(c2ccccc2C)C2C(=O)N(c3ccccc3)C(=O)C21 (stereo not given)	6	1	-13	-21	-33	i	0	22
CCOC(=O)c1cc2ccc(OC)cc2oc1=O	6	-1	-1	-19	-17	i	-8	-11
CCCC(c1nnnn1C1CCCCC1)N1CCN(c2ncccn2)CC1 (stereo not given)	6	1	10	-5	9	i	-19	-67
CCOC(=O)C1(C)CCCN(C(=O)c2ccc(F)cc2Cl)C1 (stereo not given)	2	2	·	·	-22	·	·	-4
COC(=O)/C(=C\Nc1ccc(Cl)cc1Cl)NC(=O)c1ccccc1	4	9	-8	-11	21	i	-17	·
CCOC(=O)C1CCN(S(=O)(=O)c2ccc3c(c2)NC(=O)CS3)CC1	1	-5	1	2	-11	i	-3	7
CSc1ncnc2c1ncn2CCCNC1CCN(Cc2ccccc2)CC1	3	2	·	·	-16	·	·	1
O=C(CSC(=S)N1CCCC1)NCC(=O)Nc1ccccc1Br	8	-1	·	·	-9	i	·	-9
Cn1nc(C(=O)Nc2ccc(S(=O)(=O)NCc3ccco3)cc2)c2ccccc2c1=O	·	·	2	8	·	i	-1	3
(cont.)
SMILES	MT1-MMP act inh	MT1-MMP act inh RFP	PABP polyA inh	CSC inhib	UUG fidelity	Rce1 inhib	eIF4H FP inh	HIV Env fusion	others
O=C(CSc1ccc(Cl)cc1)NC1CCCC1	0	2	2	0	4	i	-7	-52
O=C(Nc1cc(C(F)(F)F)ccc1N1CCOCC1)c1cccs1	-3	-5	0	5	-7	i	0	10
Oc1ccc(N2CCN(CC(O)c3ccccc3)CC2)cc1 (stereo not given)	-2	0	-14	35	-20	i	-10	10
NC(=O)NS(=O)(=O)Oc1ccccc1	-4	5	8	3	-2	i	8	-22
Cc1cc(C)c2c(=O)n(-c3ccccc3)[nH]c2n1	4	0	-6	-12	-17	i	8	-77
CC1CCc2cc(F)ccc2N1C(=O)CN1C(=O)c2ccccc2C1=O (stereo not given)	-4	-9	1	-10	-6	i	3	6
CCOc1ccc(CN(C)CC(=O)Nc2cccc(S(=O)(=O)N(C)c3ccccc3)c2)cc1	-1	-15	1	10	2	i	-10	28
CC(C)(C)c1cc(CNC2CS(=O)(=O)C[C@@H]2O)cc(C(C)(C)C)c1O (stereo not given in full)	-2	-2	12	-7	-25	i	1	-7
Cc1ccc(OCC(=O)N/N=C\c2c(C)n(C)c3ccccc23)c([N+](=O)[O-])c1	3	-2	5	-19	-12	i	-1	·
CC(=O)OC1CCC2C3CCc4cc(O)ccc4C3CCC12C (stereo not given)	0	0	·	·	14	·	·	-65
O=C(c1ccccc1)c1ccc2c(c1)OCCOCCOCCO2	1	-2	-1	1	-4	i	3	-5
C/C(=N/NC(=O)c1sc(NS(=O)(=O)c2ccc(C)cc2)nc1C)c1sc(N)nc1C	0	0	-7	4	·	i	10	5
CCOc1ccccc1/C=N/NC(=O)c1cccc(S(=O)(=O)N2CCOCC2)c1	0	3	0	-3	-4	i	10	4
COC(=O)c1c(C(=O)OC)c(-c2ccc(F)cc2)n2c1CS(=O)C2 (stereo not given)	1	-1	-3	-1	-15	i	-6	0
CCOC(=O)c1cc(-c2csc(Nc3ccccc3Cl)n2)on1	3	2	-5	0	·	i	-6	-12
COC(=O)c1ccc2c(c1)NC(=O)C(N1CCCCC1)S2 (stereo not given)	0	-5	2	-12	-5	i	-5	?
CCOc1ccc(Cl)cc1C1=CC(=O)C[C@H](c2ccc(OC)cc2)C1	1	-10	·	56	0	·	·	10
O=C(Nc1nc2ccccc2n1CCN1CCCCC1)C1CCCCC1	6	3	4	8	-9	i	8	·
O=C(OCCOc1ccccc1)c1n[nH]c2ccccc12	1	2	-12	2	-6	·	-18	-43
O=C(Cn1ncc2c(=O)oc3ccccc3c21)N1CCC(N2CCCCC2)CC1	-4	0	-14	4	7	i	4	74*
COc1ccc(N2CC(C(=O)Nc3nccs3)CC2=O)cc1 (stereo not given)	-1	3	-2	·	-9	i	-8	7
Cc1ccc(SCCNC(=S)Nc2ccc(C)c(C)c2)cc1	3	-3	-5	30	-24	i	4	-10
CCCCN1C(=O)C2NN=C(C(=O)OC)C2C1=O (stereo not given)	1	-1	-2	-19	-5	i	-8	4
O=C(CN1c2cccc3cccc(c23)S1(=O)=O)NCc1ccc(F)cc1	1	3	·	-5	·	·	·	2
Cc1ccc(S(=O)(=O)N2CCCC2CO)cc1 (stereo not given)	-1	2	-4	-14	-10	·	10	·
O=C(NN1C(=O)C2C3C=CC(O3)C2C1=O)c1cccc(Br)c1 (stereo not given)	-2	1	-7	-14	-17	i	2	7
